# Compound activity from PubChem.
# Epigenetic derep – Quantitative High-Throughput Screen for Regulators of Epigenetic Control | murine LDR cells, GFP reporter derepression, 30 h | Potency, µM (top dose mostly 53.9 µM), for the others: at the top dose GFP activation, actives largely listed as activators | 0.2% of 280,000 active; also: % of control where 0% means no effect; nearly all actives have a fitted effect of over 60% in size
#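 Murine LDR cells bearing a silenced CMV-driven GFP reporter were exposed to compound for 30 h at 37 C. After PBS washes, GFP-positive cells (20-120 um objects) counted by laser-scanning microplate cytometry.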
# GAA glycogen mod – qHTS Assay for Inhibitors and Activators of Human alpha-Glucosidase Cleavage of Glycogen. recombinant GAA, glycogen substrate, Amplex Red glucose oxidase fluorescence. Potency, µM (top dose mostly 76.4 µM), for the others: at the highest dose activity change, negative = inhibition, hits mostly inhibitors. 0.38% of 300,000 active;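 also: 0% = full enzyme reaction and -100% = no-enzyme basal signal; the screen sought inhibitors and activators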
#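 Natural-substrate format: glycogen cleavage by 4 nM human enzyme, glucose read by Amplex Red coupling (Ex 573, Em 610 nm). Normalized to enzyme and no-enzyme controls.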
# GAA inh – qHTS Assay for Inhibitors of Human alpha-Glucosidase as a Potential Chaperone Treatment of Pompe Disease; Lysosomal alpha-glucosidase (Homo sapiens), P10253; purified human GAA, 4-MU-alpha-glucoside fluorescence; Potency, µM (series often up to 76.9 µM), inactives show at the top dose activity change, negative = inhibition, most hits filed as inhibitors; 0.005% of 200,000 active; AID 1466, 2008;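 also: plate controls were uninhibited enzyme wells for no effect and no-enzyme background for full effect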
#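 qHTS format, compound range up to 77 uM. Human lysosomal enzyme at 4 nM, 400 uM 4-MU glucoside substrate, pH 5.0, 20 min room temperature; fluorescence after alkaline stop gives activity normalized to controls.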
# NPSR antagonist – qHTS Assay for Antagonists of the Neuropeptide S Receptor: cAMP Signal Transduction; 1% of 220,000 active; Potency, µM (titrated, usually from 38.3 µM), for the others: at the highest dose activity change, negative = inhibition, most hits filed as inhibitors; CHO-NPSR cells, cAMP TR-FRET, antagonist mode; also: % is scaled to controls: 0 for no effect and ±100 for the full control effect; nearly all actives have a fitted effect of over 50% in size; many of its hits are not listed in these tables
# Target sequence (Q6W5P4 whole entry, looked up): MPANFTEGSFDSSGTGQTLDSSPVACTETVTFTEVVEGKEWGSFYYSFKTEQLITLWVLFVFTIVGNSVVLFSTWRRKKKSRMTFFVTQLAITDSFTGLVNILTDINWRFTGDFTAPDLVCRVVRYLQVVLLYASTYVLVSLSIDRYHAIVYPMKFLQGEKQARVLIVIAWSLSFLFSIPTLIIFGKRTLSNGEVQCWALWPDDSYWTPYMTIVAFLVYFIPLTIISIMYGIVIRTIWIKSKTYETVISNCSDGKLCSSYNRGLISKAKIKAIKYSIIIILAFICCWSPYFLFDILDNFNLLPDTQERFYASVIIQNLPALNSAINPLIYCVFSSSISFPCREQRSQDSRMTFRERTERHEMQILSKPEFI
# aGal spleen mod – qHTS Assay for Inhibitors and Activators of Human alpha-Galactosidase From Spleen Homogenate; human spleen homogenate, 4MU-alpha-Gal fluorescence, 40 min; Potency, µM (highest dose often 80 µM), inactives show at the highest dose activity change, negative = inhibition, actives largely listed as inhibitors; 0.008% of 240,000 active; AID 2107, 2009;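 also: 0% = enzyme with vehicle and -100% = no enzyme basal signal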
# Target sequence (P06280 32-429 limits assumed): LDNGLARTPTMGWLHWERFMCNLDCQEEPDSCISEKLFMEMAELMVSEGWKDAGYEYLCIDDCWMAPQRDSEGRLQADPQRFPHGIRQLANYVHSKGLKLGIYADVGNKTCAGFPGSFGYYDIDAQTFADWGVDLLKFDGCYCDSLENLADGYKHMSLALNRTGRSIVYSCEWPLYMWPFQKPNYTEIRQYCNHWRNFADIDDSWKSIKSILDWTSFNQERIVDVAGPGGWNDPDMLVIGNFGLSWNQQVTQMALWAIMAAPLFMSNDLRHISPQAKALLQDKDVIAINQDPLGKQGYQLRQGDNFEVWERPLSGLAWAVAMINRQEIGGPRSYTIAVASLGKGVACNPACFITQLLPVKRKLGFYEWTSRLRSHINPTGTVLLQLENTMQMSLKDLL
#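 Human spleen homogenate (1 ug) was the enzyme source, with 4-methylumbelliferyl-alpha-D-galactopyranoside (1 mM final) in pH 5.0 citrate buffer with 0.01% Tween-20. Compounds were titrated; after 40 min at 37C, NaOH/glycine stop, 4-MU fluorescence read; AC50 from Hill fits.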
# GAA spleen mod – qHTS Assay for Inhibitors and Activators of Human alpha-Glucosidase From Spleen Homogenate; human spleen homogenate, 4-MU-alpha-glucoside fluorescence; Potency, µM (highest dose often 79.9 µM), for inactives: top-dose activity change, negative = inhibition, hits mostly inhibitors; 0.006% of 240,000 active;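 also: 0% = enzyme with vehicle and -100% = no enzyme basal signal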
#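 AC50 values come from Hill-equation fits of concentration-response data, normalized to no-enzyme and full-activity controls. Enzyme source: 1 ug human spleen homogenate; 1 mM fluorogenic 4-MU glucoside, pH 5.0 citrate buffer, 37 C, 40 min.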
# Tau fluor counter – Counterscreen qHTS for Inhibitors of Tau Fibril Formation, Fluorescence Polarization | 0.93% of 280,000 active | AID 1463, 2008 | tau K18 P301L Alexa594 fluorescence, heparin fibrillization | Potency, µM (series often up to 57.7 µM), without a hit: top-dose activity change, negative = decrease; also: % is scaled to controls: 0 for no effect and ±100 for the full control effect; nearly all actives have a fitted effect of over 55% in size
#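 Human tau K18 P301L (15 uM unlabeled, 0.24 uM Alexa 594-labeled) in 100 mM sodium acetate pH 7 with 20 uM heparin, 6 hr at 37 C. ThT 30 uM added, 1 hr ambient; Alexa 594 FP and total fluorescence read at 555/632 nm.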
# * = called active by the depositor; u = inconclusive; x = no result given; [ ] = remark or other dose. Calls follow the shape of the dose curve; as a rule, active = well fitted curve in the direction sought with a large enough effect; inconclusive = small, poorly fitted or top-dose-only effect, or another doubt; inactive = no such curve, though single readings can be large; an effect the other way counts as inactive or inconclusive. Potency is read from the fitted curve at half-maximal effect. Only part of the results is shown; rates above refer to the full screens.
SMILES,Epigenetic derep,GAA glycogen mod,GAA inh,NPSR antagonist,aGal spleen mod,GAA spleen mod,Tau fluor counter
O=C(C1CCC1)N1CCC(c2nc3c(nnn3Cc3c(F)cccc3Cl)c(=O)[nH]2)CC1,-0.4%,7%,-7%,-17%[46.1 µM],-6%,-14%,6%
COc1ccc(S(=O)(=O)N(C)CC(=O)Nc2cccc(C(C)=O)c2)cc1Cl,-2.3%,4%,-8%,-17%[46.1 µM],0%,-8%,-12%
CCNC(=O)C1CC(=O)N(c2ccc(Br)cc2)C1 (configuration not stated),-1.7%,2%,-3%,2%[46.1 µM],-5%,0%,-8%
Cc1cc(NC(=O)CN2C(=O)NC3(CCC(C)CC3)C2=O)no1 (configuration not stated),0.0%,-1%,1%,17%,-4%,-11%,-9%
COCCNC(=S)Nc1ccccn1,-5.1%,10%,u,11%,3%,4%,-1%
Cc1cc(C(F)F)n2nc(C(=O)O)nc2n1,1.9%,-10%,-7%,-9%[46.1 µM],12%,5%,6%
COc1ccc(Cl)cc1Nc1nc(N2CCCC2)nc(N2CCCC2)n1,-1.0%,3%,14%,-5%[46.1 µM],0%,1%,-2%
CN(CC(=O)Nc1ccccc1C(=O)N1CCCC1)S(=O)(=O)c1ccc(Cl)cc1,-2.4%,4%,-1%,-8%[46.1 µM],-2%,0%,-3%
CCOC(=O)c1cnc(-n2nc(C)cc2C)nc1NNc1ncc(-c2ccccc2)cn1,-3.2%,u,-4%,39%,-6%,4%,-16%
CCOC(=O)C(C)Sc1nc2c([nH]c3ccccc32)c(=O)n1C (configuration not stated),-1.0%,2%,0%,-18%,6%,-4%,-19%
O=C(O)COc1ccc(-c2nccc(-c3ccccn3)n2)cc1,-0.1%,8%,3%,10%,15%,15%,-14%
CC(C)N(CCc1ccncc1)C(=O)Nc1ccc(Cl)c(Cl)c1,-1.0%,-8%,-6%[15.4 µM],1%[46.1 µM],4%,-4%,-10%
CC(C)CC(C(=O)NCC1CCCO1)N(C(=O)Cn1nnc(-c2ccc(F)cc2)n1)c1ccccc1F (configuration not stated),0.0%,0%,-6%,u,-4%,-5%,-1%
Cc1ccc(NC(=O)c2ccc(NCC3CCCO3)c([N+](=O)[O-])c2)cc1Cl (configuration not stated),u,3%,-8%,-24%[46.1 µM],7%,-9%,-20%
CCCC(C)NS(=O)(=O)c1ccc(OC)c(C)c1 (configuration not stated),0.7%,4%,1%,-12%[46.1 µM],16%,0%,-11%
CC(C)CN(C(=O)CN1CCN(c2ccc(F)cc2)CC1)c1c(N)n(CC(C)C)c(=O)[nH]c1=O,0.0%,-3%,5%,-3%[46.1 µM],-2%,-1%,-1%
c1ccc(CCn2nnnc2C(c2cccs2)N2CCN(Cc3ccc4c(c3)OCO4)CC2)cc1 (configuration not stated),-1.0%,0%,-3%,u,0%,-3%,-16%
O=C(c1ccc(F)cc1)N1CCN2C(=O)c3ccccc3C12c1ccc(Cl)cc1 (configuration not stated),-0.1%,-16%,-7%,-55%,2%,-2%,-9%
COc1ccc(OCC(O)COc2ccc(C(=O)O)cc2)cc1 (configuration not stated),-1.1%,-12%,-1%,-10%[46.1 µM],0%,1%,-1%
Cn1c(CCCOc2ccc(Cl)cc2Cl)nnc1SCC(=O)Nc1cccc(F)c1,5.2%,-8%,-4%,-15%,1%,-10%,-24%
Cc1ccc(C)c(NC(=O)c2c(Cl)nc3ccccn23)c1,-1.4%,7%,8%,-1%,2%,0%,-7%
COc1ccc(OC)c(NC(=O)CCN2CCN(Cc3ccccc3)CC2)c1,6.3%,-6%,-3%,-7%[46.1 µM],2%,8%,-4%
Cc1ccc[n+](CC(=O)Nc2cccc([N+](=O)[O-])c2)c1,-4.2%,7%,4%,14%,1%,-2%,0%
CCOc1ccc(/C(O)=C2\C(=O)C(=O)N(CCOCCO)C2c2ccccc2OC)cc1 (configuration not stated),-1.4%,0%,2%,-2%[46.1 µM],u,-11%,0%
CN(C)c1ccc(N=Nc2ccc(S(=O)(=O)O)cc2)c2ccccc12,-0.1%,-4%,-11%,26%,1%,-19%,u
COCCCNC(=O)c1cc(C)nc2ccc(F)cc12,-1.8%,1%,-1%,-9%[46.1 µM],-5%,2%,2%
CCOCCc1nnc(NC(=O)COC)s1,2.2%,-1%,1%,-6%[46.1 µM],9%,-3%,2%
CCOC(=O)C(NC(=O)CC)C(O)c1cccc([N+](=O)[O-])c1 (configuration not stated),0.0%,3%,2%,8%[46.1 µM],2%,7%,-6%
CN1CCN(C(=O)C23CCC(C)(c4nc5ccccc5nc42)C3(C)C)CC1 (configuration not stated),0.9%,-1%,-5%,7%[46.1 µM],-13%,-27%,-3%
N#Cc1ccccc1N=C1CCCN1Cc1ccccc1,-0.1%,8%,10%,7%[46.1 µM],-12%,-9%,-6%
CCC(C)(C)NC(=O)CN(Cc1cccs1)C(=O)CNS(=O)(=O)c1ccc(F)cc1,-5.7%,14%,4%,-21%,-4%,0%,-12%
O=C(COc1ccccc1F)NCc1ccc(-n2cccc2)cc1,0.0%,-6%,-2%,-17%,-12%,-3%,-14%
CCOCC(=O)Nc1cc(C(=O)Nc2ccccc2)ccc1Cl,-3.5%,3%,3%,2%[46.1 µM],6%,5%,-4%
COc1cccc(C2N(c3ccc(Cl)cc3)C(=O)C3CCCN32)c1 (configuration not stated),-1.0%,0%,-4%,-9%[46.1 µM],-7%,-6%,-6%
Cc1ccccc1CSc1nnc(-c2cccnc2)n1N,1.0%,-20%,-10%,-4%[46.1 µM],0%,-1%,-7%
Cc1nnc2n(c1=O)C(CS(=O)(=O)c1ccccc1)CS2 (configuration not stated),2.9%,4%,-3%,-3%[46.1 µM],-7%,-4%,5%
CCOC(=O)c1c(C)[nH]c(C(=O)N/N=C\c2ccccc2O)c1C,0.0%,-7%,0%,-11%,5%,2%,-25%
COc1cc(OC)nc(NC(=O)CSc2nc3ccccc3[nH]2)n1,0.0%,12%,9%,-10%[46.1 µM],-4%,1%,-3%
Nc1nc(CSC(=S)N2CCOCC2)nc(Nc2ccccc2)n1,-1.9%,-3%,-26%,-2%,-11%,-7%,-20%
CC(O)Cc1nsc(NC(=O)c2cccs2)n1 (configuration not stated),-1.4%,1%,0%,-6%[46.1 µM],7%,7%,1%
C=CCn1c(CCNC(=O)c2cccs2)nnc1SCC(=O)c1cccc([N+](=O)[O-])c1,-1.0%,-4%,-12%,-20%[46.1 µM],2%,6%,-19%
Cc1ccc2nc(C)cc(Nc3ccc4c(c3)OCCO4)c2c1,1.0%,18%,-11%,-16%[46.1 µM],2%,-1%,-12%
COC(=O)CSc1nc(-c2ccccc2)nc2ccccc12,1.0%,2%,-33%,-45%,1%,0%,-26%
Cc1cc(Br)ccc1SCC(=O)OCC(=O)NCc1ccco1,0.0%,-9%,-2%,-5%,-2%,0%,u
O=C(Nc1cccc(O)c1)c1noc2c1CCCCC2,-0.1%,-1%,-1%,-6%[46.1 µM],-5%,-10%,-9%
CN(C(=O)COC(=O)CNC(=O)c1ccccc1Cl)c1ccccc1,-2.3%,-2%,-2%,-13%,-3%,-2%,1%
Cc1nn(C2CCS(=O)(=O)C2)c(C)c1C=O (configuration not stated),-2.2%,11%,0%,4%,-1%,x,1%
CCOC(=O)c1cc2ccccc2n1CCN(CC)CC,-1.0%,3%,-16%,9%[46.1 µM],2%,-2%,-5%
CN(CCc1ccccn1)C(=O)Nc1cc(Cl)cc(Cl)c1,-0.3%,-8%,-12%,23%,-5%,1%,-10%
Cc1ccc(N=C(NO)c2nonc2N)cc1,2.1%,-5%,1%,10%[46.1 µM],8%,12%,-9%
COCc1cc(=O)n2c(-c3ccc(C)cc3)n[nH]c2n1,-1.0%,-2%,0%,-4%,3%,1%,-5%
COc1cccc(/C=N/NC(=O)c2cc(-c3cccn3C)n[nH]2)c1O,-3.2%,-7%,7%,-26%,-1%,-22%,-26%
COc1ccc2c(c1OC)C(C1c3c(cc4c(c3OC)OCO4)CCN1C)OC2=O (configuration not stated),-1.1%,-1%,-11%[15.4 µM],9%,10%,11%,-17%
CCc1ccccc1NC(=S)N(CCN1CCOCC1)C1CCN(C(C)=O)CC1,-1.3%,1%,-6%,4%,5%,x,1%
COCCCNc1c2c(nc3nnnn13)CCCC2,-1.3%,10%,-2%,9%,-1%,x,5%
O=[N+]([O-])c1ccc(N2CCN(S(=O)(=O)c3ccccc3)CC2)cc1NCc1ccco1,1.0%,7%,7%,-11%,-1%,-5%,11%
O=C(O)c1cnn2c(C(F)F)cc(C(F)F)nc12,-1.1%,-6%,0%,7%[46.1 µM],1%,-1%,1%
CC(C)CC(=O)Nc1ccccc1Oc1ccccc1,-2.2%,-8%,1%,-3%[46.1 µM],-7%,-12%,-11%
